TLR4-MyD88 BLA – TLR4-MyD88 interaction inhibition in cells. O00206+Q99836. HeLa CL3-4 TLR4/MyD88 BLA complementation, FRET ratio. inhibition, % at 8.4 µM. hit rate 0.18% among 200,000. AID 861; in the data active = inhibition above about 25%;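 also: 0% = vehicle and 100% = reference inhibitor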
Target sequence (O00206 whole entry, looked up): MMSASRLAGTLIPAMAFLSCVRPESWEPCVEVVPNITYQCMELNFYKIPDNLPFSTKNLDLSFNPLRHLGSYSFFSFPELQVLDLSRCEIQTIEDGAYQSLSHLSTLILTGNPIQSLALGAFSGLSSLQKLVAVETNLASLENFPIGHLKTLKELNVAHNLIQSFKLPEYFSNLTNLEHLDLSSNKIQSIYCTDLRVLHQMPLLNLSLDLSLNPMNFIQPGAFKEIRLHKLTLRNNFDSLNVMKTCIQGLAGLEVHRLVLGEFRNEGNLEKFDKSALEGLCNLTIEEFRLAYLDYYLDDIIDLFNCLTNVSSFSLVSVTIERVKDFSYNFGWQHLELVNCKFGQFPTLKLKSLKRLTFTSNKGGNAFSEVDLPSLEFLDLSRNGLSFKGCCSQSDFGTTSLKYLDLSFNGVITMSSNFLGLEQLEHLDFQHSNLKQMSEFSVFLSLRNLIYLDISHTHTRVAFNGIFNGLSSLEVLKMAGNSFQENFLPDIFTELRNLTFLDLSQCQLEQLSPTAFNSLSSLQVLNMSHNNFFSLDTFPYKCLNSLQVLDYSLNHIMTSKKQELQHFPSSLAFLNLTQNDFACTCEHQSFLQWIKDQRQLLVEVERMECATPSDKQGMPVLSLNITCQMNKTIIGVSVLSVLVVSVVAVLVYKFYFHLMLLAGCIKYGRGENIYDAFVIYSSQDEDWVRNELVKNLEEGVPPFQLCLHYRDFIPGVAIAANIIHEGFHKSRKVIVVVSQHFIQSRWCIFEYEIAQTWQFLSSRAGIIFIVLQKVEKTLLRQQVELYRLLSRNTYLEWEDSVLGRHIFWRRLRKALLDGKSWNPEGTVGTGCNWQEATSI
Target sequence (Q99836 whole entry, looked up): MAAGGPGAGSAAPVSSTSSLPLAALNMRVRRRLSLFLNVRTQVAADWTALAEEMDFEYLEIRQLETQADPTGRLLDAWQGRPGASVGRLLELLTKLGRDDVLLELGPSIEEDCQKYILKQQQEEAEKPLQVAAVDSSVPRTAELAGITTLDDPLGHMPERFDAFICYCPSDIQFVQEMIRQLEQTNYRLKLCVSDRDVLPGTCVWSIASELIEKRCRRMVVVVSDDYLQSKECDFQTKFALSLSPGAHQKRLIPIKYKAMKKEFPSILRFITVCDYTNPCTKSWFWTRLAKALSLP
G6PDH CS – L. mesenteroides G6PDH inhibition counter-screen | hit rate 0.12% among 200,000 | Purified L. mesenteroides G6PDH, diaphorase/resazurin coupled fluorescence, 45 min | inhibition, % at 5 µM | AID 1020
L major viab – reduces viability of Leishmania major promastigotes | resazurin fluorescence viability | hit rate 9% among 200,000 | inhibition, % at 10 µM;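 also: promastigotes grown with compound for 44 hours at 28 °C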
DTT redox prof – compounds producing H2O2 with reducing agent – biochemical, NIH compound library profiling, artefact control for MLSCN library redox annotation, primary screen; activation, % at 10 µM; hit rate 0.03% among 200,000; AID 878; DTT-dependent redox cycling H2O2, phenol red/HRP absorbance; 100% = 100 µM peroxide control, 0% = buffer;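 active = activation of at least 50% relative to the plate's high and low controls in the primary single-dose screen; inactive = activation below 50%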;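 also: compound incubated with DTT at 0.8 mM final as the reducing agent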
RAM inhibit – yeast RAM network inhibition. S. cerevisiae dse1pr::URA3 reporter, 5-FOA growth OD615, 2 d; analog-sensitive cbk1-as2 kinase mutant strain. inhibition, % at 50 µM. hit rate 1.8% among 190,000;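 active = inhibition above a set limit, 3 SD over mean compound inhibition, cut at about 8.4% in these data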;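 also: 0% = DMSO-only wells with no growth and 100% = 10 µM 1-NA-PP1 full growth; inhibition rescues growth on 5-FOA so higher OD means more RAM inhibition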
Hsp70 activator – Hsp70 transcriptional activation, primary screen; HeLa Hsp70 promoter luciferase reporter, luminescence; scaled: vehicle 0, proteasome-inhibitor control 100%; activation, % at 10 µM; hit rate 0.04% among 200,000;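 active = activation above the mean across all tested compounds plus 3 SD, cutoff set per campaign, cut at about 5.5% in these data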;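 also: 100% = MG132 at 30 µM as the positive control and 0% = DMSO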
S1P3 antagonist – antagonists of human S1P3 receptor | Q99500 | CHO S1P3 NFAT-BLA reporter, FRET fluorescence, antagonist mode | inhibition, % at 4.98 µM | hit rate 0.27% among 170,000 | AID 485;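 active = inhibition above the plate cutoff, the mean inhibition of test wells on that plate plus 3 SD, cut at about 28% in these data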;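 also: cells challenged with S1P at its EC80 of 0.8 µM; blue over green emission ratio from cleaved BLA substrate after 4 h stimulation; 0% = S1P-stimulated wells and 100% = unstimulated DMSO-only wells; some compounds past the cut are filed as inactive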
Diaphorase inh – counter-screen for diaphorase-based assays: diaphorase inhibitors and chemical oxidizers. inhibition, % at 20 µM. diaphorase resazurin-to-resorufin fluorescence, NADH, 16 min; bacterial (C. kluyveri) enzyme, not human. hit rate 0.69% among 190,000;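 active = primary screen inhibition at 20 µM above a set limit, cut at about 50% in these data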;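 also: plate controls were DMSO with full reaction for no effect and wells lacking NADH for full effect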
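Test system: bacterial diaphorase enzyme (C. kluyveri); Quantity: 0.14 U/mL diaphorase, enzyme working solution; Times: reaction incubation of 16 min at room temperature; Measured by: fluorescence of resorufin formed from resazurin, Ex 544/Em 590 nm; Benchmarks: positive control minus NADH, DMSO neutral control.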
Numbers without * were called inactive; / = no result given. Rule as the data show it, unless noted: active = inhibition above about 50%; inactive = the rest. This is a subset. The share of hits here may be higher or lower than overall.

compound | TLR4-MyD88 BLA | G6PDH CS | L major viab | DTT redox prof | RAM inhibit | Hsp70 activator | S1P3 antagonist | Diaphorase inh
CCCN(CCC)C(=O)CSc1nc2ccccc2c(=O)n1CC1COc2ccccc2O1 (configuration not stated) | -3 | 5 | 10 | 0.2 | 9.0* | -0.4 | / | 20
S=C(NCCC(c1ccccc1)c1ccccc1)Nc1ccc(Cl)cc1 | 3 | 1 | 16 | 2.5 | 4.8 | 0.4 | / | 20
Nc1nc(Br)c2c(F)cccc2c1-c1ccccc1 | 2 | 10 | -5 | 4.0 | 3.7 | 0.1 | / | 14
CN(C)C(CNc1nnnn1-c1ccccc1)c1ccco1 (configuration not stated) | -6 | -12 | -5 | -1.5 | 0.7 | -0.5 | 14 | 10
CCCNC(=O)Cn1cnc2sc(C(=O)NCCN(CC)CC)c(C)c2c1=O | -4 | 8 | -3 | 0.5 | 1.1 | -0.1 | 11 | 3
O=C(CCCn1c(=S)[nH]c2cc3c(cc2c1=O)OCO3)N1CCN(c2ccc(Cl)cc2)CC1 | -17 | 0 | 56* | -0.4 | 5.9 | -0.3 | / | 17
CS(=O)(=O)n1nc(-c2ccccc2)nc1N | 7 | 5 | -3 | 0.0 | 0.4 | -0.4 | / | 13
O=C(Cn1cncn1)NCc1ccccc1Br | -1 | 9 | -6 | -5.3 | 0.4 | 0.3 | / | 9
O=C(CN(c1ccccc1)S(=O)(=O)c1ccccc1)NCCSc1nc2ccccc2s1 | -4 | 7 | 0 | -3.0 | 7.7 | -0.2 | / | 7
COC(=O)C1=C(CSCc2ccccc2)NC(=O)NC1c1cc(C)ccc1C (configuration not stated) | 7 | 9 | 34 | 0.9 | 2.6 | -0.2 | / | 8
Cc1c(C)c2ccc(Oc3ccc([N+](=O)[O-])cc3C(F)(F)F)c(C)c2oc1=O | -2 | 9 | 12 | -2.9 | 0.4 | -0.1 | / | 7
NNc1nc(-c2ccccc2)cc(-c2ccccc2O)n1 | -6 | -2 | 89* | -4.3 | 3.8 | -0.3 | / | -2
Cc1ccc(C)c(C(=O)COC(=O)c2ccccc2N2C(=O)C3C4CCC(C4)C3C2=O)c1 (configuration not stated) | 5 | 5 | 29 | -5.5 | 7.1 | -0.2 | / | 0
CN1CCN(NC(=O)c2ccc(F)cc2)CC1 | 7 | -3 | -5 | -4.9 | 0.9 | -0.3 | / | 17
O=[N+]([O-])c1cccc(-c2nnn(C34CC5CC(CC(C5)C3)C4)n2)c1 | 0 | 7 | -8 | 0.8 | 3.2 | -0.4 | / | 14
Cc1ccc(Nc2nc(N3CCOCC3)nc(N3CCOCC3)n2)cc1 | 7 | 3 | 7 | -0.8 | 3.1 | -0.5 | -13 | 6
CC(C)C(NS(=O)(=O)c1cccs1)C(=O)NCCN1CCN(c2ccccc2)CC1 (configuration not stated) | -6 | 10 | 3 | 1.9 | 1.6 | -0.1 | -7 | 10
NNC(=O)c1cc2c(s1)CCCCCC2 | 11 | -1 | 1 | 2.7 | 2.0 | 0.2 | / | 14
O=[N+]([O-])c1ccccc1OCCCN1CCOCC1 | 6 | 7 | 42 | -0.1 | 0.5 | 0.0 | / | 2
CC(O)CNCc1ccc(-c2ccccc2)cc1 (configuration not stated) | 4 | -3 | 89* | -3.9 | 0.8 | -0.2 | / | 17
COc1cc2cc(CN(CCCO)S(=O)(=O)c3ccccc3Cl)c(=O)[nH]c2cc1OC | 0 | 1 | 6 | 0.0 | 0.3 | -0.1 | -35 | 2
COc1cccc(OC)c1C(=O)Nc1ccc2c3c(cccc13)CC2 | 4 | 0 | 10 | 1.1 | -0.7 | 1.0 | / | 6
CCOc1ccc(NC(=O)CSc2nnc(CCNC(=O)c3ccc(OC)cc3)n2CC)cc1 | 9 | 5 | -2 | -3.5 | 0.0 | -0.1 | / | 15
CC(C)(C)NC(=O)Cn1nnc(-c2ccccc2NC(=O)c2cnccn2)n1 | -4 | 8 | -6 | 0.8 | 1.2 | -0.1 | / | 3
CC1CCN(CCCNC(=O)c2n[nH]c(=O)c3ccccc23)CC1 | -1 | 6 | 0 | 1.5 | 1.7 | 0.1 | 3 | -1
O=C(NNC(=O)C1COc2ccccc2O1)c1ccccc1 (configuration not stated) | -7 | 2 | -3 | -4.6 | 2.0 | -0.2 | / | -3
COc1ccc(C(=O)Nc2n[nH]c(-c3ccncc3)n2)cc1 | 7 | 0 | 1 | -3.5 | 0.8 | -0.4 | / | 3
CCCCNC(=O)NS(=O)(=O)c1cnccc1Sc1ccc(Cl)cc1 | -12 | 2 | -6 | 1.8 | 2.9 | -0.4 | / | 2
Cc1cc(C)cc(CSCC(=O)N/N=C/c2ccc(OCC(=O)NCc3ccco3)cc2)c1 | -13 | 7 | 3 | 1.6 | 3.0 | -0.2 | / | 9
Cc1ccc2cc(C(=O)O)c(C)nc2c1 | -12 | 7 | -4 | 1.8 | -1.9 | -0.1 | / | -2

Arranged by value in S1P3 antagonist (largest number first): some entries from above.
mol | S1P3 antagonist
CN(C)C(CNc1nnnn1-c1ccccc1)c1ccco1 (configuration not stated) | 14
CC(C)C(NS(=O)(=O)c1cccs1)C(=O)NCCN1CCN(c2ccccc2)CC1 (configuration not stated) | -7
Cc1ccc(Nc2nc(N3CCOCC3)nc(N3CCOCC3)n2)cc1 | -13
COc1cc2cc(CN(CCCO)S(=O)(=O)c3ccccc3Cl)c(=O)[nH]c2cc1OC | -35

(list continues)
Value order: TLR4-MyD88 BLA | G6PDH CS | L major viab | DTT redox prof | RAM inhibit | Hsp70 activator | S1P3 antagonist | Diaphorase inh
> CCOc1ccc(-n2c(N)c(C(=O)NCC3CCCO3)sc2=S)cc1 (configuration not stated)
→ 6 | 10 | -1 | 2.1 | 5.8 | -0.1 | / | 19
> O=S(=O)(NCCNS(=O)(=O)c1cccs1)c1cccs1
→ -4 | 9 | 4 | -8.7 | 0.9 | -0.5 | -8 | -3
> C=CCNC(=S)NNC(=O)c1ccc2c(c1)OCO2
→ 2 | 6 | -12 | -4.7 | 1.9 | 0.1 | / | 5
> COC(=O)c1ccc(CNC(=O)CSc2nc3sc(C)c(C)c3c(=O)n2C)o1
→ 2 | 0 | 6 | 0.5 | 0.2 | -0.3 | 8 | 17
> Cc1cc2c(ncn2Cc2ccccc2)c([N+](=O)[O-])c1C
→ 5 | 11 | -5 | 1.6 | 1.1 | -0.3 | / | -8
> NC(=O)C1(NC(=O)[C@@H]2CC3(CC(c4cccc(NC(=O)[C@@H]5CCC(=O)N5)c4)=NO3)CN2C(=O)c2cnccn2)CC1 (some centres not stated)
→ 6 | 8 | -9 | -7.9 | -0.4 | -0.3 | / | 6
> CCOc1ccc(NC(=O)N2CCC(C(=O)c3ccc(F)cc3)CC2)cc1
→ -9 | -1 | 18 | 0.9 | 0.0 | 0.2 | / | -4
> COC(=O)c1[nH]c2ccc(C)cc2c1NC(=O)CN1CCN(Cc2ccccc2)CC1
→ 7 | 9 | -3 | 2.2 | 0.0 | -0.4 | -8 | 21
> O=C(Cn1cccc1)NCc1cccs1
→ 7 | 3 | -5 | 0.1 | 2.9 | -0.3 | -1 | 12
> Cc1ccc(C(=O)C2(C)C3c4cc(Br)ccc4OC(=O)C32C(=O)c2ccco2)cc1 (configuration not stated)
→ -1 | 3 | -3 | -3.2 | 2.8 | -0.1 | / | 30
> CC(C)CN(C(=O)COC(=O)c1cc2ccccc2oc1=O)C1CCS(=O)(=O)C1 (configuration not stated)
→ 16 | 3 | -6 | -1.5 | 1.4 | -0.2 | -13 | 12
> CCN(CC)c1cc(C)c2cc(NC(=O)c3ccc(Br)o3)ccc2n1
→ 2 | 20 | 80* | 2.9 | -0.1 | 0.1 | / | 33
> CN(C)S(=O)(=O)Oc1ccsc1C(=O)Nc1ccc(Cl)cc1
→ -1 | 12 | -1 | 0.6 | 2.1 | -0.2 | / | -1
> Cn1nnnc1SCC(=O)Nc1ccccc1[N+](=O)[O-]
→ -5 | 4 | -3 | 2.2 | -0.6 | -0.3 | / | -2
> CC1Cc2cc(/C(O)=C3/C(=O)C(=O)N(CCN4CCOCC4)C3c3cccc(Cl)c3)ccc2O1 (configuration not stated)
→ -2 | 11 | -2 | 0.9 | -0.8 | -0.2 | -23 | 21
> Cn1cccc1CNC(=O)Nc1ccc(Cl)c(Cl)c1
→ -9 | -1 | 9 | 2.8 | 2.5 | -0.1 | -17 | 19
> CCOc1cc(/C=C(/C#N)c2nc3ccccc3[nH]2)ccc1OCc1ccc(C(=O)O)o1
→ -2 | 6 | -2 | -3.4 | 9.1* | 0.5 | / | 4
> CC(=O)c1cn(CC(=O)Nc2ccccc2C)c2ccccc12
→ -12 | 4 | 9 | -2.2 | 2.5 | -0.3 | / | -6
> CC1(C)OC(=O)N(c2ccccn2)C1(C)O (configuration not stated)
→ 3 | 8 | 2 | 0.0 | 0.4 | -0.3 | 1 | 12
> CCc1c(C)nc2c(C#N)c(C)[nH]n2c1=O
→ 7 | 8 | -4 | 3.7 | 0.1 | 0.0 | / | 4

Gathered by group, those above containing fluorine
Value order: TLR4-MyD88 BLA | G6PDH CS | L major viab | DTT redox prof | RAM inhibit | Hsp70 activator | S1P3 antagonist | Diaphorase inh
> Nc1nc(Br)c2c(F)cccc2c1-c1ccccc1
→ 2 | 10 | -5 | 4.0 | 3.7 | 0.1 | / | 14
> Cc1c(C)c2ccc(Oc3ccc([N+](=O)[O-])cc3C(F)(F)F)c(C)c2oc1=O
→ -2 | 9 | 12 | -2.9 | 0.4 | -0.1 | / | 7
> CN1CCN(NC(=O)c2ccc(F)cc2)CC1
→ 7 | -3 | -5 | -4.9 | 0.9 | -0.3 | / | 17
> CCOc1ccc(NC(=O)N2CCC(C(=O)c3ccc(F)cc3)CC2)cc1
→ -9 | -1 | 18 | 0.9 | 0.0 | 0.2 | / | -4

(list continues)
Value order: TLR4-MyD88 BLA | G6PDH CS | L major viab | DTT redox prof | RAM inhibit | Hsp70 activator | S1P3 antagonist | Diaphorase inh
> Cc1cc(/C=C2\SC(=S)N(Cc3ccco3)C2=O)c(C)n1-c1cccnc1
→ 1 | 12 | 5 | 1.0 | 7.6 | -0.5 | / | 22
> O=C(OCc1ccccc1)c1cccc(-c2nnc(-c3ccccc3)o2)c1
→ -2 | 3 | -5 | 2.7 | 12* | 1.1 | / | 8
> CCCc1nc(SCC(=O)Nc2nc3c(s2)CCCC3)c2ccccc2n1
→ -3 | 2 | -4 | -5.0 | 0.3 | -0.3 | / | 16
> CCOc1c2ccc(C(=O)NCc3ccc(OC)cc3)cc2nn1CCOC
→ 7 | 0 | -4 | -5.8 | 1.1 | -0.5 | / | 10
> COc1ccc(C2C(=O)N(C3CCCCC3)CC(=O)N2CC2COc3ccccc3O2)cc1 (configuration not stated)
→ 0 | 13 | 19 | -3.7 | 2.7 | 0.1 | / | 25
> COC(=O)C1=C(NC(=O)c2ccc(C)cc2)CCS1
→ 2 | 7 | -9 | -1.8 | 2.1 | 0.1 | / | 20
> N#Cc1cc2c(nc1SCC(=O)O)CCCC2
→ -11 | 15 | -5 | 0.0 | 1.0 | -0.1 | / | 10
> COC(=O)c1ccccc1NC(=O)Oc1ccc(F)cc1
→ -1 | 8 | -1 | 0.0 | 0.4 | -0.4 | / | 4
> CCN=C1S/C(=C\c2ccc(Sc3ccc(Cl)cc3)o2)C(=O)N1CC
→ 3 | 4 | 0 | 1.2 | 4.6 | -0.1 | / | 11
> O=C(CSc1n[nH]c(-c2cccs2)n1)N1CCCc2ccccc21
→ 10 | 3 | 0 | -4.0 | -0.1 | -0.3 | / | 10

Bioassay records (PubChem)
